Source: PubChem BioAssay (Fisher Drug Discovery Resource Center)
NPYLR7 agonist – mosquito NPYLR7 agonism; hit rate 0.15% among 270,000; HEK293T NPYLR7/Galpha15, GCaMP6s calcium fluorescence; AID 1259423; activation, % at 10 µM; in the data active means activation above about 40%;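 further: 0% = vehicle and 100% = reference agonist at the receptor; some compounds past the cut are filed as inactive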
NPYLR7 agonist max-min – second read-out of NPYLR7 agonist, no call of its own (marks repeat the call); activation, %; measured here: Max-Min RFU normalised activation; some inactives read as strong as hits;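 span of the calcium signal over five minutes; 0% = vehicle and 100% = native peptide agonist; compound fluorescence can raise it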
An asterisk follows results filed as active; & = joins results of further samples. Some of the compounds tested; rates above refer to the full screens.

Order of results: NPYLR7 agonist, NPYLR7 agonist max-min
S=c1[nH]nc(COc2ccccc2)n1Cc1ccccc1
 : -6.9, -15.9
CCOc1ccccc1OCC(=O)Nc1sc(C)c(C)c1C#N
 : 7.1, 11.8
Cc1ccccc1-n1ncc(C(=O)N2CCC(C(N)=O)CC2)c1C1CC1
 : 2.2, 1.7
CCOc1ccc(Nc2oc(-c3ccc(S(=O)(=O)N(C)C)cc3)nc2C#N)cc1
 : 0.8, 21.5
COc1ccccc1C1(CNC(=O)C2CCCCC2)CCCC1
 : 7.3, 8.5
COCc1cc(C)nc(NN=Cc2ccc(-c3cccc(C(=O)O)c3)o2)c1C#N
 : -7.8, -15.7
Cc1ccc2nc(-c3cccc(C)c3OCC(=O)NC(C)C)oc2c1
 : 1.2, 0.7
Cc1ccc(-c2nnn(CC(=O)N3CCCCCC3)n2)cc1
 : -0.9, 0.2
CCS(=O)(=O)N1CCC(C(=O)OCCc2ccccc2F)CC1
 : -2.6, 27.0
COc1ccc(-c2cnc3ncnn3c2N2CCCN(C(=O)c3cc(OC)cc(OC)c3)CC2)cc1
 : -1.1, -3.0
CC1c2cccn2CCN1S(=O)(=O)c1ccc(Cl)c(C(F)(F)F)c1 (centres undefined)
 : 8.6&11.5, 6.8&8.0
N#CCCN(Cc1ncc(-c2ccc(Cl)cc2)o1)C1CCOCC1
 : 21.5, 16.3
CC(C)CN1CC(C(=O)N2CCC(Oc3ncccn3)CC2)CC1=O (centres undefined)
 : -3.2, 8.7
CC(C(=O)NCc1cccc(C(F)(F)F)c1)n1c(=O)n(Cc2ccccc2)c(=O)c2ccc(Cl)cc21 (centres undefined)
 : 2.5, 14.0
O=C(CSc1ccccc1Br)N1CCC1
 : 9.5, 6.1
COc1cc(C(=N)N)ccc1OCc1ccccc1Cl
 : 8.7, 2.2
CCOC(=O)c1ccc(N=c2scc(-c3ccc(OC)cc3)n2CCc2cccs2)cc1
 : -5.0, -7.6
Cc1ccc(S(=O)(=O)c2nnn3c2nc(N2CCC(C(N)=O)CC2)c2sccc23)cc1C
 : 1.6, 5.8
CSc1ccc(NS(=O)(=O)/C=C/c2ccc(Cl)cc2)cc1
 : -3.5, -3.4
CC1CCCCN1C(=O)C(NC(=O)c1cccs1)C1CCN(C(=O)c2cccc(F)c2)CC1 (centres undefined)
 : -6.5, -4.0
CN1CC(=O)N(CC(=O)N2CCOC(c3ccc(Cl)c(Cl)c3)C2)C1=O (centres undefined)
 : 2.5, 3.0
O=C(c1ccc2snnc2c1)N1CCOC(c2ccccc2)C1 (centres undefined)
 : 2.1, 9.1
CC(C)c1nc(SCc2ccccc2OC(F)F)n[nH]1
 : 10.9, 7.9
CNC(=O)CN(C)c1cncc(OCC(C)C)n1
 : 8.0, 3.9
NC(=S)N1N=C2C(=Cc3ccc([N+](=O)[O-])cc3)CCCC2C1c1ccc([N+](=O)[O-])cc1 (centres undefined)
 : 4.9, 4.6
CCN1CCN(c2ncc3c(n2)CC(c2ccccc2O)CC3=O)CC1 (centres undefined)
 : 1.0, -1.1
Cn1cc(C(=O)N2CCN(CC(=O)c3ccc(Cl)cc3)CC2)c2nn(-c3ccccc3)c(=O)c-2c1
 : -4.6, -9.8
OC1(c2cccc(C(F)(F)F)c2)CCN(Cc2ncccc2F)CC1
 : -2.2, -2.5
O=C1/C(=C/c2ccc(O)c(O)c2)SC(=S)N1c1cccc(F)c1
 : 17.4, 30.8
CCN(CC)S(=O)(=O)c1cc(C(=O)Nc2ccc(Br)cc2)ccc1Cl
 : 3.3, -2.3

Brought forward from above: seven compounds, then new ones.
Order of results: NPYLR7 agonist, NPYLR7 agonist max-min
CNC(=O)CN(C)c1cncc(OCC(C)C)n1
 : 8.0, 3.9
NC(=S)N1N=C2C(=Cc3ccc([N+](=O)[O-])cc3)CCCC2C1c1ccc([N+](=O)[O-])cc1 (centres undefined)
 : 4.9, 4.6
CCN1CCN(c2ncc3c(n2)CC(c2ccccc2O)CC3=O)CC1 (centres undefined)
 : 1.0, -1.1
Cn1cc(C(=O)N2CCN(CC(=O)c3ccc(Cl)cc3)CC2)c2nn(-c3ccccc3)c(=O)c-2c1
 : -4.6, -9.8
OC1(c2cccc(C(F)(F)F)c2)CCN(Cc2ncccc2F)CC1
 : -2.2, -2.5
O=C1/C(=C/c2ccc(O)c(O)c2)SC(=S)N1c1cccc(F)c1
 : 17.4, 30.8
CCN(CC)S(=O)(=O)c1cc(C(=O)Nc2ccc(Br)cc2)ccc1Cl
 : 3.3, -2.3
COc1ccc(NC(=O)N(CCN2CCOCC2)CC(=O)N(Cc2ccc(F)cc2)Cc2ccco2)cc1
 : -5.8, -6.5
Cc1ccc(S(=O)(=O)NC2=C([n+]3cccc(C)c3)C(=O)c3ccccc3C2=O)cc1
 : 5.7, -6.3
O=C(c1cc(F)ccc1F)N1CCc2ccccc2C1c1ccccc1F (centres undefined)
 : 14.3, 8.5
CC(C)(C)c1cc(C(=O)N2CCCCCC2CC(=O)c2ccccc2)n[nH]1 (centres undefined)
 : -11.9, -11.2
c1ccc(Nc2nc(CN3CCSC4COCCC43)cs2)cc1 (centres undefined)
 : 2.5, 1.9
COc1cccc(-n2nnc3c(=O)n(Cc4cccc(C(F)(F)F)c4)cnc32)c1
 : 0.3, 2.0
O=C(O)CCC(=O)N[C@H]1CCN2C(=O)c3cc(-c4ccc(Cl)cc4)ccc3NC(=O)[C@H]12
 : -1.3, -12.4
Cc1nc2sccn2c1-c1nc(-c2cc(Cl)ccc2Cl)cs1
 : 21.1, 8.3
CC(C)NC(=O)N(Cc1ccco1)Cc1c(-c2ccc(F)cc2)noc1N1CCOCC1
 : 6.7, 4.0
COCCNC(=O)C1(C)Cc2c(-c3cccc(C(F)(F)F)c3)ccnc2O1 (centres undefined)
 : 9.6, 18.9
O=C(C1CCCN(S(=O)(=O)c2cccs2)C1)N1CCC(N2CCCCC2)CC1 (centres undefined)
 : 6.7, -0.9
COc1cc(/C=C/CN2CCC3(CC2)c2ccccc2[C@@H](NC(=O)C(C)C)[C@@H]3OC)ccc1O
 : -2.4, -6.5
COc1cccc2c1OCC(CN1CCCN(C(=O)c3ccco3)CC1)=C2
 : 17.3, 5.2
O=C(NC1CCC(O)CC1)N(Cc1ccccc1O)C1CCCCC1 (centres undefined)
 : 8.6, 6.8
CC(C)CCC(=O)Nc1cnc2c(cnn2C(C)C)c1
 : 3.7, 3.2
O=C(c1ccc(-c2ccoc2)nc1)N1CCCC(c2ccccc2)CC1 (centres undefined)
 : 1.7, -5.1
CCCc1cc(=O)[nH]c(N=C(NC(=O)c2ccccc2)Nc2ccc(F)cc2)n1
 : -0.3, -2.8
O=C(Nc1cccc(C2SCC(=O)N2c2ccc(F)cc2F)c1)c1ccc(Cl)c(Cl)c1 (centres undefined)
 : 2.3, 13.4
COC(=O)Cn1c(=NC(=O)c2cccc([N+](=O)[O-])c2)sc2cc3c(cc21)OCO3
 : 0.8, -1.7
COc1ccc(C2=NOC(CN(Cc3ccc(F)cc3)C(=O)C3CCC3)C2)cc1 (centres undefined)
 : -9.7, 2.6
COCc1cc(CNC(=O)c2csc3c2CCCC3)[nH]n1
 : 0.3, -1.1
CC(=O)Oc1ccc(CN2C(=O)C(C)ON=C2c2ccccn2)cc1 (centres undefined)
 : -1.3, -1.2
O=C(Cc1ccc(Cl)c(Cl)c1)OCCN1CCCC1
 : 5.8, -1.5
O=C(NCC1CCCO1)C(C1CCCC1)N1CCN(C(=O)c2ccc(C(F)(F)F)cc2)CC1 (centres undefined)
 : -9.1, -2.5
CN1C(=O)CN(C(=O)OC(C)(C)C)[C@H]1C(C)(C)C
 : 0.8, 0.0
CCc1cc(CN(C)C(=O)c2cc3ccccc3n2C)on1
 : 0.9, -1.8
CN1C[C@@H]2CC[C@H](CC1=O)N2C(=O)c1cnnn1-c1ccccc1
 : -2.1, -5.4
COc1ccc(C(=O)N2CCN(Cc3ccccc3)CC2)cc1[N+](=O)[O-]
 : 0.6, -1.7
O=S(=O)(c1cccs1)N(CCC(F)(F)F)C1CCC1
 : 1.7, -0.7
CC(CCc1ccccc1)CC(=O)N1CCC(C(=O)NC2CC2)CC1 (centres undefined)
 : -7.6, -9.4
Cc1[nH]c(=S)[nH]c(=O)c1CCO
 : -1.8, -4.2
CCC(=O)N(c1n[nH]c(=S)s1)C1CC1
 : 1.0, -0.9
C=CCN(Cc1ccc(F)cc1)C(=O)C1CCN(CC(N)=O)CC1
 : 7.3, 6.7
O=C(NCc1ccco1)c1ccc(CSc2nnc(-c3cccs3)n2-c2ccccc2F)cc1
 : 6.0, 8.8
Cc1cccc(CN2CCN(c3ccccc3C)C(=O)C2C)c1 (centres undefined)
 : -0.7, 29.2
Cc1nc(N2CCN(CC(=O)N3CCCCC3)CC2)c2cc(-c3ccccc3)sc2n1
 : 2.0, -1.2
Cc1ccc(C(=O)COC(=O)c2ccc(Cl)c(N)c2)cc1
 : 4.7, 0.3
Cc1nc2nc3ccn(CCO)c(=O)c3c(-c3ccc(Cl)cc3)n2n1
 : 2.2, 0.5
CCCc1[nH]n(-c2ccc(Cl)c(Cl)c2)c(=O)c1/C=C1\NC(=O)N(Cc2cccc(F)c2)C1=O
 : -9.3, -7.9
O=C(NCCn1nc(-c2ccc(F)cc2)ccc1=O)C(c1ccccc1)c1ccccc1
 : -2.6, -3.4
CCOc1ccccc1-c1cnc(N)nc1
 : 1.5, 0.4
COc1ccc(CCNC(=O)c2ccccc2N2CCC(NC(=O)COc3ccccc3)CC2)cc1OC
 : -2.5, 7.2
CCN(CC)S(=O)(=O)c1ccc(C(=O)Nc2ccsc2C(=O)OC)cc1
 : 8.6, 13.4
CCOc1ccc(NC(=O)c2cn(C)c3c(=O)n(-c4ccc(C)cc4)c(=O)[nH]c23)cc1
 : 16.2, 16.5
OCc1ccccc1-c1cccc2cccnc12
 : 0.8, -1.4
CCCOc1ccc(-c2c(=O)n(OCc3ccccn3)c3ccccc3[n+]2[O-])cc1
 : -0.9, -8.6
O=C(c1csc(-c2ccco2)n1)N1CCC(OCCCO)CC1
 : 2.3, 1.0
O=C(NC1CC1)c1csc(COc2ccccc2Cl)n1
 : -6.9, 3.6
CCN(CC)c1cc(C(C)C)nc(SCc2cccc(C(=O)N3CCOCC3)c2)n1
 : -11.0, 4.8
COCc1ccc(C(=O)N2CCCC(C(=O)c3ccc(Oc4ccccc4)cc3)C2)s1 (centres undefined)
 : 14.7, 2.2
NC(=O)c1nc(-c2cccs2)nc2c1[nH]c(=O)n2-c1ccc(Cl)cc1
 : -5.3, -0.5
CC(CC(=O)Nc1ccc(C(=O)N2CCCC2)cc1)n1cccc1 (centres undefined)
 : 6.1, 0.8
Cc1nonc1CN(C)C(=O)c1cn(C/C=C/c2ccccc2)nn1
 : 15.4, 1.9
O=C1CNC(=O)C1c1ccc(F)cc1 (centres undefined)
 : -0.7, -1.3
O=C(NCCN1CCc2ccccc21)c1onc2ccccc12
 : 21.2, 10.9
COc1cncc(-c2ccc(F)c(CO)c2)c1
 : 13.0, 11.1
Cc1cc(C(=O)NN=Cc2ccc(C(C)C)cc2)n[nH]1
 : -1.4, -4.9
CC(C)(C)CNC(=O)C1(C)CCN1C(=O)c1ccccc1CCc1ccccc1 (centres undefined)
 : 6.5, 7.0
CCn1cc(NC(=O)c2n[nH]c(C(C)C)c2Br)cn1
 : 7.2, 5.7
CCOCCn1c(SCCc2ccccc2)nc2c1c(=O)[nH]c(=O)n2C
 : -11.1, -10.2

Additional results:
Order of results: NPYLR7 agonist, NPYLR7 agonist max-min
CCC(=O)N1CCCC(C(=O)Nc2ccc(Nc3ccc(C(F)(F)F)cn3)cc2)C1 (centres undefined)
 : 4.0, -0.5
OCCNc1nc2nonc2nc1Nc1ccc(Cl)cc1
 : 7.9, 4.7
CCN(CC)c1ccc(C(=O)Cn2c(C)c(C(=O)NCc3ccc(C#N)cc3)sc2=O)cc1
 : 22.2, 19.9
C=CCC1Cc2c(cccc2[N+](=O)[O-])C(CC=C)N1 (centres undefined)
 : -0.8, -1.0
CSc1ccc(C=C2N=C(c3ccccc3)OC2=O)cc1
 : -0.4, -1.1
COC(=O)c1ccc(-c2ccc(C=C3C(=O)N(C)C(=O)N(C)C3=O)o2)cc1
 : -10.0, -16.8
Cc1cc(C(=O)N2CCCC2(C)C(=O)O)c(C)o1 (centres undefined)
 : -2.1, -3.8
COC(C)(C(=O)NCc1ccc(C)n1C)c1ccccc1 (centres undefined)
 : 15.2&2.6, 12.8&0.1
CCNC(=S)N(CCCOC)Cc1c(-c2ccccc2)noc1N(C)C(C)C
 : 14.5, 12.8
CN(C(=O)CN1CCc2nn(C)c(=O)cc2C1)c1nccs1
 : 0.8, 11.2
CCC1CN(CCNC(=O)c2cccc(C(=O)OC)c2)Cc2cc(OC)ccc2O1 (centres undefined)
 : 3.3, 1.6
CN(c1ccccc1)N1CC(C(=O)NCc2ccc3c(c2)OCO3)CC1=O (centres undefined)
 : -5.6, -15.0
CCOC(=O)c1cc(-c2ccc(CC)cc2)n(-c2ccc(C(=O)Oc3ccc([N+](=O)[O-])cc3)cc2)n1
 : 1.3, 7.8
CCC(CC)C(=O)N(C)c1c(C)nc2c(OCc3ccccc3C(=O)OC)cccn12
 : 1.2, -12.1
CC1CCc2sc(-c3nnc(SCc4cc(=O)n5ccsc5n4)o3)cc2C1 (centres undefined)
 : -0.3, -4.7
CC(C)(C)n1ncc(O/N=C2\CC3CCC2(C)C3(C)C)c(Cl)c1=O (centres undefined)
 : -1.4, -3.3
O=C(NCCc1nc2ccccc2n1Cc1ccccc1Cl)c1ccco1
 : -1.5, 4.1
Cc1cc(C)c(Cn2cncn2)cc1CN1CC[C@H](CO)[C@@H](O)C1
 : 9.6, 5.9
CCCCC(Sc1nc(C)cc(=O)[nH]1)C(=O)O (centres undefined)
 : -1.3, -1.7
CSc1ccccc1NC(=O)CN(c1ccc(Br)cc1)S(C)(=O)=O
 : -1.7, -1.8
O=C1C=C(N2CCOCC2)C2(CCCCC2)O1
 : -2.6, -3.1
Cc1ccc2[nH]c(CNC(C)c3cn4ccsc4n3)nc2c1C (centres undefined)
 : 1.3, -0.6
CS(=O)(=O)NCc1csc(C2CC2)n1
 : 8.1, 7.9
